Assay outcomes (PubChem)
D2 ag: agonists of human D2 dopamine receptor (beta-arrestin); DiscoveRx PathHunter D2 beta-arrestin, luminescence, 90 min; 100% = 57 uM dopamine signal; hit rate 0.084% among 360,000; activation, % (concentration not given with the values); in the data active = activation above about 40%; inconclusive = about 15% to 40%; inactive = below about 15%; further: compound concentration not given in the record; the text of the record calls up to 30% inactive
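Agonist mode: compounds alone added to overnight-plated D2 PathHunter cells for 90 min at 37 C, with 57 uM final dopamine (EC100) defining full response. Beta-arrestin recruitment detected by chemiluminescent reagent, read after 1 h at ambient temperature.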
PINK1 modulator: PINK1 expression modulation; PINK1 immunofluorescence, high-content cytometry, 24 h; Potency, µM (titrated, usually from 76.6 µM), for the others: at the top dose activation (PINK1 increase), most hits filed as activators; hit rate 0.2% among 410,000; AID 624263; active = well fitted activation curve with a large enough effect; inconclusive = small, poorly fitted or top-dose-only effect; inactive = flat fitted curve, though single readings scatter; cell line not stated here;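 further: potency means the concentration at half of the fitted maximal effect; % of control where 0% means no effect; nearly all actives have a fitted effect of over 65% in size; a mitochondrial uncoupler was the plate control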
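Compound titrations (5 concentrations, 24 h) on a stable cell line; DMSO and CCCP controls. Endpoint: fixed-cell PINK1 immunofluorescence with mitochondrial, cell and nuclear markers, scanned by microplate cytometer.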
CtBP-E1A blk: inhibitors of CtBP/E1A interaction; activity change, % (test concentration not listed); AID 651724; AlphaScreen GST-E1A/His-CtBP binding, 1536-well; hits give low values; control for the full effect not named in the record; hit rate 0.49% among 340,000; in the data active means activity change below about -65%; inconclusive means about -30% to -65%; inactive means above about -30%; further: on the % scale 0 is the no-effect control and ±100 the full control effect; compound concentration not given in the record
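GST-E1A and His-tagged CtBP (125 nM each as 5X stock) were preincubated with pin-transferred compound for 2 h at 37 °C in the dark, then glutathione donor and nickel acceptor beads were added for 1 h before AlphaScreen reading.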
D2 potentiator: human D2 receptor positive allosteric modulation | P14416 | hit rate 0.23% among 360,000 | potentiation, % (test concentration not listed) | DiscoveRx D2 beta-arrestin cells, luminescence, 90 min; 100% = 57 uM dopamine signal; active = potentiation of 50% or more; inconclusive = 30% to 50%; inactive = 30% or less;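 further: compound concentration not given in the record; tested on top of an EC20 dose of dopamine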
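D2 cells co-treated with compound plus 50 nM dopamine (EC20) for 90 min at 37 deg C to detect potentiation. Beta-arrestin recruitment was read as enzyme-fragment luminescence after 1 h at ambient temperature. Full response was set by 57 uM dopamine.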
Sfp inh: inhibitors of Bacillus subtilis Sfp phosphopantetheinyl transferase. Q9F4F7. Biochemical Sfp PPTase activity, qHTS. Potency, µM, for the others: max response, negative = inhibition, actives largely listed as inhibitors. hit rate 3.5% among 310,000. AID 1490; active means well fitted inhibition curve with a large enough effect; inconclusive means small, poorly fitted or top-dose-only effect, or another doubt; inactive means no such curve, though single readings can be large or run the other way;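 further: the enzyme is Sfp with the accession as filed and its product quenches rhodamine fluorescence; potency means the concentration at half of the fitted maximal effect; 0% = enzyme reaction without inhibitor and -100% = no enzyme wells; top concentration of the series not given in the record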
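Reaction rates are the 30-min fluorescence difference (ex 525, em 598 nm) in wells containing 15 nM Sfp, 5 uM rhodamine-CoA and 12.5 uM BHQ-2-YbbR at pH 7.6 with 10 mM MgCl2.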
Six1-Eya2 inh: inhibitors of human Six1/Eya2 interaction. Q15475+O00167. AlphaScreen GST-Six1/His-Eya2 binding, biochemical; hits give low values; control for the full effect not named in the record. activity change, % (concentration not given with the values). hit rate 0.56% among 360,000. AID 651725; in the data active = activity change below about -65%; inconclusive = about -30% to -65%; inactive = above about -30%; further: on the % scale 0 is the no-effect control and ±100 the full control effect
Target sequence (O00167 whole entry, looked up): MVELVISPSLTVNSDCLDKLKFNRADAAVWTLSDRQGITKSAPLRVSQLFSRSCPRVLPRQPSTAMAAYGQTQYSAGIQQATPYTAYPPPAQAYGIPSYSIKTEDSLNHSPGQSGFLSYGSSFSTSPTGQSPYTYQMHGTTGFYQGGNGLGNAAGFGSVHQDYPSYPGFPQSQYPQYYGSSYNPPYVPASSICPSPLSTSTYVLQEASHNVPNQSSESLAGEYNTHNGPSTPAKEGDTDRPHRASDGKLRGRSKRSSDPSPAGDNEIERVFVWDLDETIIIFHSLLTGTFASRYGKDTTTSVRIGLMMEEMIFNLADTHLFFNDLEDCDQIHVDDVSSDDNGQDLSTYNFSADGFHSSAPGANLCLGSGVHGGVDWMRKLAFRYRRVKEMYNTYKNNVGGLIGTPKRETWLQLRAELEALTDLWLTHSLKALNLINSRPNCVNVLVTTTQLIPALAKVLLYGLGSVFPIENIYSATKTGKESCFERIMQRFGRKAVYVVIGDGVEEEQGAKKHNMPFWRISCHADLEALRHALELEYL
Target sequence (Q15475 whole entry, looked up): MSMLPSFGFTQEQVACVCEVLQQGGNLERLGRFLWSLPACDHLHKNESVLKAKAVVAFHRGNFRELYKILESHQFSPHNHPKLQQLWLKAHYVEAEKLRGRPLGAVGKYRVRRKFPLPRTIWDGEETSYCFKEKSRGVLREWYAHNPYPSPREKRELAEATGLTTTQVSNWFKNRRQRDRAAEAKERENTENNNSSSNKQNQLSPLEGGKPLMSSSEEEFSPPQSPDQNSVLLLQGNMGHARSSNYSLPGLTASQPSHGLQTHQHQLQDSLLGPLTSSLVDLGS
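AlphaScreen with GST-Six1 and His-Eya2 (5X mix: 250 nM and 500 nM), glutathione donor and nickel acceptor beads; buffer 50 mM Tris pH 8.0, 300 mM NaCl, 1 mM TCEP; 1 h at 37 C in the dark.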
TRPV1 PAM: human TRPV1 potentiation. TRPV1-expressing cells, Fluo-8 calcium influx, capsaicin EC20 potentiation; host cell line not named in the record; control for the full effect not named in the record. hit rate 0.02% among 320,000. AID 540277. potentiation, % at 8.33 µM. Q8NER1; active means potentiation above 80%; inconclusive means 30% to 80%; inactive means below 30%; further: 0% is about no effect
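Cells expressing TRPV1 were dye-loaded with Fluo-8 and read kinetically: 10 s baseline, 3 min after compound (agonist portion), then 2 min after EC20 capsaicin (allosteric enhancer portion). Calcium-bound dye fluorescence at 480/520 nm.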
The depositor's hits bear a star; ? = inconclusive; / = no result given; & = joins results of further samples; [ ] = another dose, or the depositor's remark.

SMILES	D2 ag	PINK1 modulator	CtBP-E1A blk	D2 potentiator	Sfp inh	Six1-Eya2 inh	TRPV1 PAM
Cc1ccccc1Cn1c(Cc2ccccc2)nc2ccccc21	-4.2	18%	9	-21	-21%	-3	-1
Cc1ccc2nc(SCC(=O)Nc3ccc(Br)cc3)nc(=O)n2c1	-0.4	5.7%	-2	-3	/	3	21
O=C(c1cc2nc(-c3ccccc3)cc(-c3ccccc3)n2n1)N1CCN(C(=O)c2ccco2)CC1	-1.7	1.9%	2	5	-24%	0	-10
CCOC(=O)c1c(NC(=O)C[n+]2ccccc2)sc2c1CCCC2	-4.3	-0.7%	0	-39	0%	-7	6
Cn1c(SCc2c(F)cccc2Cl)nnc1-c1cnccn1	1.8	0.5%	-4	3	-6%	6	?
CCOc1cccc(-c2cc(NCCc3ccccn3)n3nccc3n2)c1	-0.8	-0.7%	7	-7	/	1	/
C[C@@H]1CN([C@@H](C)CO)C(=O)CCCn2cc(nn2)CO[C@H]1CN(C)S(=O)(=O)c1cccc(F)c1	-8.1	1.1%	6	0	/	11	/
Cc1sc2nc(CSCC(=O)N3CC(C)OC(C)C3)[nH]c(=O)c2c1C (centres undefined)	-6.0	2.5%	7	-18	/	-1	7
O=C(Cn1cccc1C(=O)c1ccccc1)NCc1ccccn1	-1.8	-2.5%	3	9	9%	2	0
O=C(CCn1c(=S)oc2ccccc21)Nc1ccc2c(c1)OCCO2	-1.3	-0.3%	18	-1	0%	-6	-1
Cc1ccc(CNC(=O)C2CCCN2S(=O)(=O)c2ccc(F)cc2)cc1 (centres undefined)	3.6	0.8%	-2	-16	6%	3	4
COc1cccc(CNC(=O)CN2C(=O)CC(c3ccccc3)=Nc3ccccc32)c1	-3.1	-0.9%	-7	-4	9%	1	-4
CC(CSc1nc2ccccc2s1)Cn1c(N2CCCC2)nc2c1c(=O)[nH]c(=O)n2C (centres undefined)	-2.0	-1.1%	-4	-1	-4%	-11	9
CCCCC(CC)CN1CN(CC(CC)CCCC)CC(C)(N)C1 (centres undefined)	-1.1	0.2%	8	4	9%	3	/
CCOC(=O)c1oc2ccccc2c1NC(=O)c1cccs1	-3.4	14%[38.3 µM]	7	-14	20%	1	-2
COc1ccc(C(=O)NC2CCN(S(=O)(=O)c3ccccc3)CC2)cc1	0.4	3.3%	12	-6	21%	9	-15
COc1cc(C(F)(F)F)c(C(=O)N(C)Cc2ccc(Cl)c(Cl)c2)cn1	1.9	0.2%	6	-6	2%	5	-6
CC(=O)N1CCc2cc(S(=O)(=O)Nc3ccccc3N3CCN(C)CC3)ccc21	-5.9	1.6%	3	-2	10%	16	8
CCCc1ccc(C(O)c2ncc(-c3cccc(OC)c3)[nH]2)cc1 (centres undefined)	-1.4	1.2%	-18	-8	/	?	/
O=C(Nc1nc2ccccc2s1)c1ccc(Cl)s1	1.5	7.7%	3	-3	14%	7	-3
COC(=O)c1ccc(CNC(=O)Cn2cnc3c(SC)nc(N)nc32)cc1	-5.2	1.8%	-14	-4	/	9	/
CCOc1cc(/C=N/NC(=O)c2nn(C)cc2Br)ccc1OCc1ccccc1Cl	-4.6	8.6%	4	-15	3%	-12	6
CN1Cc2c(N3CCOCC3)nc3sc(C(=O)c4ccccc4)c(N)c3c2CC1(C)C	-1.8	2.8%	-29	-11	-10%	-19	-9
Cc1cc(C(=O)OCC(=O)Nc2ccccc2Cl)c(C)o1	-1.7	2.9%	3	-9	/	-6	20
O=C(CCn1c(=O)[nH]c2ccsc2c1=O)Nc1ccc(F)c(F)c1	-1.6	-1.4%	4	-6	19%	-1	-6
C=CCc1cccc2cc(C(=O)Nc3ccc(F)cc3)c(=O)oc12	-0.4	1.4%&6.0%	0	-2	11%	6	9
CCOC(=O)c1c(C)[nH]c(C2=NNC(=NC(C)COC)SC2)c1C (centres undefined)	-3.9	1.6%	1	-5	-25%	-9	4
COc1cc2c(cc1OC)[C@H](C)N(C(=O)CSc1nc(O)c(C(C)C)c(=O)[nH]1)CC2	-6.5	0.2%	1	-15	10%	-2	24
CC1(C)C2CCC1(C)C(OC(=O)CSc1nc(N)cc(=O)[nH]1)C2 (centres undefined)	-1.3	4.2%[38.3 µM]	0	-10	7%	-2	-2
N/C(=N\OC(=O)c1ccc(Cl)c(Cl)c1)c1cccnc1	?	1.8%	6	117*	-13%	4	-10
CCCCC(CC)C(=O)NCCCN1CCN(CCCNC(=O)C(CC)CCCC)CC1 (centres undefined)	-1.3	-1.3%	0	-2	14%	7	5
Cc1ccc(NC(=O)CNC(=O)c2ccc(C)s2)nc1	-5.0	0.4%	8	0	/	2	2
CC1Cc2ccccc2N1C(=O)CSc1nnnn1C1CCCC1 (centres undefined)	-2.5	1.6%	-1	-2	3%	-3	8
O=C1CN(C(=O)COC(=O)c2ccccc2O)c2ccccc2N1	-0.3	1.3%	4	-2	20%	-6	3
CCN(CC)S(=O)(=O)c1cc(C(=O)NC2=NCCS2)ccc1Cl	-3.7	-0.4%	-2	-7	8%	-1	-7
Nc1nnc(SCC(=O)NNC(=O)c2ccccc2F)s1	1.8	-0.1%	0	-5	/	13	/
S=c1nc(-c2ccccc2)oc2c1CCCC2	-5.6	2.1%	24	-8	-6%	18	-5
c1ccc(-c2nnc3n2NC(c2ccc4c(c2)OCO4)S3)cc1 (centres undefined)	-1.6	6.4%[38.3 µM]	-1	-9	-4%	-7	5
O=C(c1ccccc1)C(c1ccccc1)c1ccccc1	-4.8	4.6%	27	-16	/	25	-3
O=C(c1ccsc1)N1CCCC(N2CCOCC2)C1 (centres undefined)	-0.3	2.5%	/	-9	9%	12	9
COc1cccc(CN2CCN(Cc3cc4ccccc4o3)CC2CCO)c1 (centres undefined)	3.5	1.1%	20	-22	13%	1	-8
CCC(C)(C)n1nnnc1CN(Cc1ccc(Cl)cc1)Cc1ccco1	0.6	?	16	0	4%	2	-14
COC(=O)CN(C)C(=O)c1ccc(OC)c(OC2CCN(C(C)C)CC2)c1	6.6	-0.1%	2	-1	7%	1	22
O=C(Cn1nnc(N2CCCCC2)n1)c1ccc(Cl)c(Cl)c1	-5.9	-0.3%	/	-1	9%	-7	-7
CCc1ccccc1N(CC(=O)NC(C)c1ccccc1)S(C)(=O)=O (centres undefined)	-3.2	-0.8%	/	3	2%	-2	-3
COc1cc(OC)cc(C(=O)Nc2ccccc2N2CCOCC2)c1	-2.9	1.6%[38.3 µM]	3	-8	-4%	5	-23
O=C(OC(C(=O)NC1CCCC1)c1ccccn1)c1cccs1 (centres undefined)	-0.9	-1.5%	2	-8	4%	4	6
COc1ccc(N2C(N)=C(C#N)C(c3ccsc3)C3=C2CCCC3=O)c(OC)c1 (centres undefined)	0.8	8.0%	1	-1	?	-13	4
COc1ccc(OC)c(NC(=O)COC(=O)c2cc3c(s2)CCC3)c1	-1.5	5.9%	-14	-2	-22%	-18	-1
C[C@H](CO)N1C[C@H](C)[C@@H](CN(C)S(=O)(=O)c2ccccc2)Oc2ccc(NC(=O)Nc3ccc(C(F)(F)F)cc3)cc2C1=O	1.4	-1.7%	-6	-3	/	-11	/
CC1(C)CC2CC(C)(CN2C(=S)NC(=O)c2ccccc2Cl)C1 (centres undefined)	-2.6	4.9%	-5	-6	12%	0	-4
CCCC(=O)N1CCCC(c2cc(C(=O)Nc3ccc4c(c3)OCO4)no2)C1 (centres undefined)	9.7	0.6%	3	9	/	-10	/
COCCCN1C(=O)c2ccc(C(=O)OCC(=O)N3CCN(c4ccccc4)CC3)cc2C1=O	-0.9	1.6%	-14	1	/	-2	-2
COc1cc(CN2CCN(Cc3ccc(C)cc3)CC2)c([N+](=O)[O-])cc1OC	-1.3	0.1%	-23	-19	56µM*	-28	10
CCOc1ccc(-c2nnc(SCC(=O)N3CCOCC3)o2)cc1	-1.7	-2.6%	3	-3	1%	2	-8
COc1ccc(OC)c(/C=C/C(=O)OCC(=O)Nc2ccc(Cl)c(S(=O)(=O)N(C)C)c2)c1	-0.5	1.0%	-11	-22	18%	18	6
O=C(O)CSc1nc2ccc(Br)cc2[nH]1	3.2	5.7%	3	0	/	4	/
Cc1cnc(C(=O)OC(C)C(=O)c2c(C)[nH]c3ccccc23)cn1 (centres undefined)	1.1	-0.8%	14	-7	/	2	5
COc1ccc(-c2cc(C(F)(F)F)nc(NCc3ccco3)n2)cc1OC	1.1	4.6%	3	19	10%	-4	3
C/C(=N\NC(=O)C1CC1)c1ccc(C)c(C)c1	2.9	-0.9%	2	-8	15%	2	-13
Continuation.
SMILES	D2 ag	PINK1 modulator	CtBP-E1A blk	D2 potentiator	Sfp inh	Six1-Eya2 inh	TRPV1 PAM
COc1ccc(Br)cc1CNC(=O)C1CCC(=O)N1C(C)C (centres undefined)	0.5	1.5%	4	0	/	-4	/
CCN(CC)C(=O)C(=O)c1cn(CC(=O)NCC2CCCO2)c2ccccc12 (centres undefined)	-2.2	-0.6%	-12	-5	6%	13	8
COc1cc2ncc(S(=O)(=O)c3ccccc3)c(N3CCCC(C)C3)c2cc1OC (centres undefined)	3.8	1.6%	-13	9	-23%	?	-3
CSc1cccc(NC(=O)N2CCN(C)CC2)c1	-2.2	2.9%	/	-13	9%	-1	-7
CCOc1ccc(S(=O)(=O)Nc2cccc(C(=O)NCCCN3CCCC3=O)c2)cc1	-1.1	6.1%	3	0	/	4	-5
CCN(CC(=O)Nc1ccccc1C(F)(F)F)C(=O)CCSc1ccc(F)cc1	-1.9	0.8%	-15	18	/	16	12
CCSc1c(-c2ccccc2)nc2c(C)cccc2c1C(=O)O	0.1	0.3%	3	-12	0%	11	1
